Compound activity from PubChem.
D2 agonist = activates the human D2 dopamine receptor. P14416. 360,000 compounds, 0.084% hits. DiscoveRx PathHunter D2 beta-arrestin, luminescence, 90 min; 100% = 57 uM dopamine signal. activation, % (concentration not given with the values); in the data active = activation above about 40%; inconclusive = about 15% to 40%; inactive = below about 15%; further: the text of the record calls up to 30% inactive
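DiscoveRx PathHunter D2 beta-arrestin cells (2,100/well) attached overnight, then compound-stimulated 90 min at 37 C in HBSS/10 mM HEPES/0.1% Tween-20 buffer; beta-galactosidase complementation read by luminescence after 1 h at ambient temperature. Dopamine 57 uM final (EC100) as control.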
PINK1 expr mod = PINK1 expression modulation | Potency, µM (top dose mostly 76.6 µM), without a hit: at the highest dose activation (PINK1 increase), actives largely listed as activators | PINK1 immunofluorescence, high-content cytometry, 24 h | 410,000 compounds, 0.2% hits; active = well fitted activation curve with a large enough effect; inconclusive = small, poorly fitted or top-dose-only effect; inactive = flat fitted curve, though single readings scatter; cell line not stated here;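 further: potency means the concentration at half of the fitted maximal effect; % of control where 0% means no effect; nearly all actives have a fitted effect of over 65% in size; a mitochondrial uncoupler was the plate control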
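Readout is PINK1 immunofluorescence, quantified alongside mitochondrial, cell and nuclear markers by laser-scanning microplate cytometry. Cells from a stable line were exposed to compound titrations (5 concentrations) for 24 hours, with CCCP controls.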
Six1-Eya2 inh = blocks human Six1 binding to Eya2; Q15475+O00167; activity change, % (concentration not given with the values); AID 651725; AlphaScreen GST-Six1/His-Eya2 binding, biochemical; active compounds read low; control for the full effect not named in the record; 360,000 compounds, 0.56% hits; in the data active = activity change below about -65%; inconclusive = about -30% to -65%; inactive = above about -30%; further: on the % scale 0 is the no-effect control and ±100 the full control effect
Target sequence (O00167 whole entry, looked up): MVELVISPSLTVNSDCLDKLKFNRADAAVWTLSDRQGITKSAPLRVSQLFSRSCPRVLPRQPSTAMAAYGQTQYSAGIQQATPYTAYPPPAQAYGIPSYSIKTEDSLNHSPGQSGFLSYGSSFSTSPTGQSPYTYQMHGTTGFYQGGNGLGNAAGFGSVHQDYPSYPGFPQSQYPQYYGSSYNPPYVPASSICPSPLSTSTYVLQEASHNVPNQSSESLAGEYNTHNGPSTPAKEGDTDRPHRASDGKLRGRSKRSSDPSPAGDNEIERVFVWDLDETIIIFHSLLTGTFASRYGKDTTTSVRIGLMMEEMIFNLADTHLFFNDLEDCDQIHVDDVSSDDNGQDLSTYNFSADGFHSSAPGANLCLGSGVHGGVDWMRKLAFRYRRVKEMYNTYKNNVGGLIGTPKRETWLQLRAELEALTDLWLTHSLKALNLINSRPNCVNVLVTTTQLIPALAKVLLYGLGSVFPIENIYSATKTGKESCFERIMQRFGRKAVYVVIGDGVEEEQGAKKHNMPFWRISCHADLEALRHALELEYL
Target sequence (Q15475 whole entry, looked up): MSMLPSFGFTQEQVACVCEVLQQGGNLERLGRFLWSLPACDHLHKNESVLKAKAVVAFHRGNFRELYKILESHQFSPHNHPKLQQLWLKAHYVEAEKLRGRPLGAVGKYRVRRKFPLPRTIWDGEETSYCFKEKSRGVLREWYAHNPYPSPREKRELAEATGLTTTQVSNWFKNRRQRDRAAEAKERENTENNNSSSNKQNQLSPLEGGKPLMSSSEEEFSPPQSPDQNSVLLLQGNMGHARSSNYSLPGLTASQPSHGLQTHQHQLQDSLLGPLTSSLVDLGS
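AlphaScreen with GST-Six1 and His-Eya2 (5X mix: 250 nM and 500 nM), glutathione donor and nickel acceptor beads; buffer 50 mM Tris pH 8.0, 300 mM NaCl, 1 mM TCEP; 1 h at 37 C in the dark.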
TRPML1 blocker = inhibitors of human TRPML1 channel; Q9GZU1; TRPML1-inducible cells, Ca2+ dye fluorescence, FDSS; active compounds read low; inhibition of EC80 agonist-evoked calcium signal; activity change, negative = inhibition, % (no concentration beside the values); 390,000 compounds, 0.02% hits; AID 624415; in the data active means activity change below about -50%; inconclusive means about -30% to -50%; inactive means above about -30%;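 further: stimulus is agonist 54-4 at its EC80 concentration; on the % scale 0 is the no-effect control and ±100 the full control effect; compound concentration not given in the record; the text of the record puts the active cut at -80%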
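TRPML1-DL cells, Tet-induced overnight (~16 h, 37 °C) at 1,500 cells/well, were loaded with Ca8 no-wash dye plus quencher for 45-90 min at room temperature. Compounds were pinned during FDSS kinetic reading; agonist 54-4 at EC80 (4 uM final) then added.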
D2 PAM = positive allosteric modulators of human D2 dopamine receptor. P14416. DiscoveRx D2 beta-arrestin cells, luminescence, 90 min; 100% = 57 uM dopamine signal. potentiation, % (test concentration not listed). 360,000 compounds, 0.23% hits; active = potentiation of 50% or more; inconclusive = 30% to 50%; inactive = 30% or less;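 further: compound concentration not given in the record; tested on top of an EC20 dose of dopamine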
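PathHunter beta-arrestin assay in DiscoveRx D2 cells. Compounds were added with an EC20 of dopamine (50 nM final) for 90 min at 37 deg C. Luminescence was read 1 h after detection reagent, with 57 uM dopamine as the EC100 control.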
TRPML1 ag = human mucolipin-1 channel agonism | Q9GZU1 | activation, % (concentration not given with the values) | TRPML1-expressing cells, Ca2+ dye fluorescence, FDSS; host cell line not named in the record; reference of the full effect not given here | AID 624414 | 410,000 compounds, 0.12% hits; in the data active = activation above about 50%; inconclusive = about 30% to 50%; inactive = below about 30%; further: 0% is about no effect; the text of the record puts the active cut at 80%
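Tetracycline-induced TRPML1-DL cells are seeded and incubated overnight before loading with a no-wash Ca2+ dye and quencher. Agonist activity is taken from the 110 s fluorescence read following compound pin-transfer on an FDSS, before EC80 54-4 challenge.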
* hit, by the source's call; ? = inconclusive; · = no result given; [ ] = another dose, or the depositor's remark.

SMILES	D2 agonist	PINK1 expr mod	Six1-Eya2 inh	TRPML1 blocker	D2 PAM	TRPML1 ag
COc1ccccc1-c1oc2ccccc2c1C#CCO	-6.3	1.2%	5	-1	-5	-0.4
Cc1cccc(NS(=O)(=O)c2c(C)nc3scc(C)n3c2=O)c1	1.1	-0.4%	7	-13	-3	-0.1
Cc1c(C(=O)OCC(C)C)[nH]c2c1C(=O)CC(c1cccs1)C2 (stereo unspecified)	1.1	8.0%	2	-1	6	0.8
Nc1nnn(-c2ccccc2)c1-c1ccccc1	-5.2	-0.9%	-2	7	-2	1.9
COc1cc(/C=N/Nc2nc3ccccc3s2)ccc1O	?	0.9%	-14	31	9	2.1
Cc1ccc(N(CC(=O)NC(C)(C)C)C(=O)CNC(=O)c2cccs2)cc1C	0.0	0.0%	-4	12	-9	-0.5
COc1cc2c(cc1OC)C(c1c(-c3c(Cl)cccc3Cl)noc1C)=NCC2	-4.0	2.9%	-6	4	-6	0.5
CCc1ccc(Nc2nnc(SCn3nnc4ccccc4c3=O)s2)cc1	-3.3	2.6%	0	-14	-13	0.9
COc1cccc(-c2cc3nc(Nc4ccc(OC)c(OC)c4)n(C)c(=O)c3s2)c1	6.9	2.6%	-17	·	-6	-0.8
CCCCC1(C)OC(=O)C(=Cc2ccc(N(C)C)cc2)C(=O)O1 (stereo unspecified)	-0.4	-0.3%	9	12	0	0.8
O=C(CSCc1ccc(Br)cc1)NCCc1ccccc1	-1.7	-0.6%	7	-9	-1	2.5
COCC(=O)Nc1ccc2c(c1)OCO2	-0.6	-1.9%	12	8	-7	-0.4
O=C(COC(=O)c1cccnc1Nc1cccc(C(F)(F)F)c1)NCCN1C(=O)CSC1=O	0.1	1.2%	-3	-5	6	1.4
CCOC(=O)c1[nH]c(C)c(C(=O)OCC(=O)NCc2ccc(OC)cc2)c1C	8.4	1.4%	4	25	3	3.9
Cc1cccc(NC(=O)C2CCCN(S(=O)(=O)c3cccs3)C2)c1C (stereo unspecified)	-0.1	-0.3%	-3	1	-4	1.4
Cc1cc(C)c2c(C(C)(C)C)nn(-c3ccccc3)c2n1	14	14%	30	-2	-1	0.5
Cc1cccn2c(=O)c3cc(C(N)=S)c(=N)n(CCCOC(C)C)c3nc12	-4.2	1.5%	-19	-2	-22	-0.3
COc1ccc(-c2nc(N)nc(N)n2)c(O)c1	2.2	-1.3%	-1	8	-9	-0.6
CCC(=O)N1CCn2c1nc1ccccc12	0.1	-6.4%[38.3 µM]	2	6	-11	0.5
CCn1c(CN2CCC(C)CC2)nc2cc(S(=O)(=O)N3CCCCC3)ccc21	-2.5	1.0%	-1	1	-26	-1.0
CCOC(=O)[C@H]1[C@H]2COc3ccc(Br)cc3[C@@H]2N2C(=O)c3cc(F)c(F)cc3NC(=O)[C@@]12C	-1.9	3.7%	0	4	-14	1.9
Cc1cn(C(=O)c2cccc(Br)c2)c(C)n1	3.6	2.3%	15	63	-3	-0.4
FC(F)(F)c1cccc(NC(=S)NCc2ccccc2)c1	3.8	7.7%	9	1	-9	-0.2
CCOc1ccc(S(=O)(=O)n2c([N+](=O)[O-])cnc2C)c(C)c1C	-1.2	0.2%	6	-4	-1	-0.2
CC12C=CC3(CN(Cc4ccccc4)C(=O)C3C1C(=O)NCc1ccco1)O2 (stereo unspecified)	-2.4	7.4%[38.3 µM]	0	-18	-3	0.3
COc1ccc2c(c1OC)C(=O)N(c1cccc(C)c1)C2=O	-3.6	-0.4%	6	-13	-4	2.5
O=C(COc1cccc(Cl)c1)NCC(c1cccs1)N1CCOCC1 (stereo unspecified)	0.0	3.4%	3	-1	0	-0.2
O=C1C=C(c2ccc(Br)c3ccccc23)C[C@@H](c2ccc3c(c2)OCO3)C1	-1.9	1.0%	-16	-2	1	1.8
COc1ccc(C2=NN(C(=O)CCCC(=O)O)C(c3cn(-c4ccccc4)nc3-c3ccccc3)C2)cc1 (stereo unspecified)	-0.5	0.1%	-6	7	0	1.3
Cc1nc(SCC(=O)NC2CCCC2)c2oc3ccccc3c2n1	-3.3	2.5%	1	24	-4	-1.0

Part of the list above in order of length of the SMILES, ascending:
SMILES	D2 agonist	PINK1 expr mod	Six1-Eya2 inh	TRPML1 blocker	D2 PAM	TRPML1 ag
COc1ccc(-c2nc(N)nc(N)n2)c(O)c1	2.2	-1.3%	-1	8	-9	-0.6
Cc1cccn2c(=O)c3cc(C(N)=S)c(=N)n(CCCOC(C)C)c3nc12	-4.2	1.5%	-19	-2	-22	-0.3
O=C1C=C(c2ccc(Br)c3ccccc23)C[C@@H](c2ccc3c(c2)OCO3)C1	-1.9	1.0%	-16	-2	1	1.8

Molecules shown so far with bromine, in the order listed:
SMILES	D2 agonist	PINK1 expr mod	Six1-Eya2 inh	TRPML1 blocker	D2 PAM	TRPML1 ag
O=C(CSCc1ccc(Br)cc1)NCCc1ccccc1	-1.7	-0.6%	7	-9	-1	2.5
CCOC(=O)[C@H]1[C@H]2COc3ccc(Br)cc3[C@@H]2N2C(=O)c3cc(F)c(F)cc3NC(=O)[C@@]12C	-1.9	3.7%	0	4	-14	1.9
Cc1cn(C(=O)c2cccc(Br)c2)c(C)n1	3.6	2.3%	15	63	-3	-0.4
O=C1C=C(c2ccc(Br)c3ccccc23)C[C@@H](c2ccc3c(c2)OCO3)C1	-1.9	1.0%	-16	-2	1	1.8

The listing continues.
SMILES	D2 agonist	PINK1 expr mod	Six1-Eya2 inh	TRPML1 blocker	D2 PAM	TRPML1 ag
CN(C)Cc1cc(CN(C)C)c(O)c(CCc2ccccc2)n1	0.8	-1.1%	2	10	-5	0.0
CC(=O)NC(=S)Nc1cc(C(=O)O)ccc1Cl	-3.3	1.3%	3	-5	-21	1.9
O=C(NCC(c1ccc2c(c1)OCO2)N1CCN(c2ccccc2)CC1)c1ccccc1 (stereo unspecified)	·	-1.5%	·	5	·	0.6
COc1cc(Nc2cc(C)nc3ncnn23)cc(OC)c1OC	1.2	0.9%	-4	-1	0	0.3
Cc1nn(Cc2ccc(Cl)cc2)c2sc(C(=O)OCC(N)=O)cc12	-2.0	-1.5%	-5	-1	11	-1.3
COc1ccc(NS(=O)(=O)c2cc(NC(=O)c3ccccn3)ccc2OC)cc1Br	11	8.3%	-2	2	-4	-0.2
Cc1onc(-c2ccccc2)c1C(=O)n1cccn1	0.5	-0.4%	6	-12	?	0.5
CCCCCOC(=O)CSc1ncnc2sc3c(c12)CCC(C)C3 (stereo unspecified)	·	-1.8%	·	9	·	0.8
CCN(C(=O)c1cc2c(=O)n3cccc(C)c3nc2s1)C1CCCCC1	2.3	1.0%	9	?	4	1.6
Cc1nn(-c2cc(N3CCOCC3)ccc2[N+](=O)[O-])c(=O)c2ccccc12	-2.6	·	-2	-9	-12	-0.4
Cc1ccc(Cl)cc1NC(=O)CN1C(=O)c2ccccc2Sc2ncccc21	·	2.4%	·	-10	·	0.2
COc1ccc(C2(C(=O)Nc3ccc(C)cc3)CCOCC2)cc1	-3.3	2.9%	3	11	-1	-0.5
COc1ccc(-c2cc3nc(C)c(CCC(=O)N4CCN(c5cc(C)ccc5C)CC4)c(C)n3n2)c(OC)c1	·	2.2%	·	20	·	-0.7
CCOc1ccccc1CNC(=O)Cn1c(=O)c2cccn2c2ccc(F)cc21	·	0.1%	·	4	·	1.3
O=C(Nc1ccc(S(=O)(=O)NCCc2ccccc2)cc1)c1ccncc1	-1.8	-0.5%	1	15	-3	-0.7

Profiles as entered above. Order of screens: D2 agonist	PINK1 expr mod	Six1-Eya2 inh	TRPML1 blocker	D2 PAM	TRPML1 ag
O=C(COc1cccc(Cl)c1)NCC(c1cccs1)N1CCOCC1 (stereo unspecified) reads 0.0	3.4%	3	-1	0	-0.2
CCOc1ccccc1CNC(=O)Cn1c(=O)c2cccn2c2ccc(F)cc21 reads ·	0.1%	·	4	·	1.3

The list goes on.
SMILES	D2 agonist	PINK1 expr mod	Six1-Eya2 inh	TRPML1 blocker	D2 PAM	TRPML1 ag
CC(Oc1cccc(Cl)c1)C(=O)NC1CC(C)(C)NC(C)(C)C1 (stereo unspecified)	-2.5	-1.3%	6	-7	-23	-0.1
Cc1ccc(C(=O)CCC(=O)Nc2ccc(Cl)c(S(=O)(=O)Nc3cccc(Cl)c3)c2)cc1	1.8	0.5%	1	8	-8	2.9
C/C(=N\NC(=O)CNC(=O)c1ccco1)c1ccc(Br)cc1	-5.9	-0.3%	10	17	-11	0.8
CCn1c(C)nc2cc(C(=O)NNS(=O)(=O)c3c(C)c(C)cc(C)c3C)ccc21	-0.3	-3.7%	5	-10	4	-1.1
CCn1c(N2CCN(C(=S)NCCc3ccccc3)CC2)nc2ccccc21	0.7	-2.8%[38.3 µM]	-10	-13	-16	2.5
O=C(CSc1nnc2c(Cl)cc(C(F)(F)F)cn12)N(Cc1ccccc1)Cc1ccccc1	-1.8	-0.8%	-13	-9	-12	0.0
CC(C)N(C)c1ncnc2c1ncn2[C@H]1CN(Cc2ccccc2)C[C@@H](CO)O1	-6.4	0.9%	2	·	-2	-0.2
Cc1ccc(C)c(S(=O)(=O)N2CCN(C(=O)c3ccccc3Cc3ccccc3)CC2)c1	5.0	0.7%	9	68	-1	0.7
Cc1cc(C)cc(Nc2ccc(C(=O)O)cc2[N+](=O)[O-])c1	-0.2	3.1%	-12	-5	-7	-1.3
CCOC(=O)C(=O)Nc1nc(-c2ccccc2)c(-c2ccccc2)o1	-7.1	-0.1%	-1	-3	-13	-0.4
COc1cccc(C2c3[nH]c4ccccc4c3C[C@H]3C(=O)N(c4ccccc4C(=O)NCCCN4CCOCC4)C(=O)N23)c1 (stereo partly specified)	-5.1	1.5%	-8	·	-5	·
Cc1cc(C)cc(NC(=S)N(Cc2ccc(Br)cc2)Cc2ccc(C(=O)O)cc2)c1	0.8	-1.5%	-2	30	-4	0.2
COC(=O)c1ccc(COc2ccccc2/C=C/C(=O)c2ccc(OCC(=O)O)cc2)cc1	0.0	-3.8%	?	-7	-4	0.8
Cc1noc(C)c1CSc1nc2sc3c(c2c(=O)n1C)CCCC3	-1.9	-0.9%[38.3 µM]	0	-12	-1	0.5

An excerpt from above, reduced to PINK1 expr mod:
mol | PINK1 expr mod
CCOC(=O)C(=O)Nc1nc(-c2ccccc2)c(-c2ccccc2)o1 | -0.1%
COc1cccc(C2c3[nH]c4ccccc4c3C[C@H]3C(=O)N(c4ccccc4C(=O)NCCCN4CCOCC4)C(=O)N23)c1 (stereo partly specified) | 1.5%
Cc1cc(C)cc(NC(=S)N(Cc2ccc(Br)cc2)Cc2ccc(C(=O)O)cc2)c1 | -1.5%
COC(=O)c1ccc(COc2ccccc2/C=C/C(=O)c2ccc(OCC(=O)O)cc2)cc1 | -3.8%
